Rango complex inh = Rango-importin beta binding inhibition. Q14974. Rango CFP/YFP FRET sensor + importin beta, 45 min. Potency, µM (series often up to 92.2 µM), for inactives: at the top dose inhibition of complex formation. actives 0.031% (n = 340,000); active = rising FRET ratio curve, often small or poorly fitted; inconclusive = mostly compound fluorescence or quenching in the first reads; inactive = flat curves in all reads;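 also: potency is read from the fitted curve at half-maximal effect; 0% = DMSO wells and 100% = buffer wells lacking importin beta; nearly all actives have a fitted effect of over 15% in size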
Target sequence (Q14974 whole entry, looked up): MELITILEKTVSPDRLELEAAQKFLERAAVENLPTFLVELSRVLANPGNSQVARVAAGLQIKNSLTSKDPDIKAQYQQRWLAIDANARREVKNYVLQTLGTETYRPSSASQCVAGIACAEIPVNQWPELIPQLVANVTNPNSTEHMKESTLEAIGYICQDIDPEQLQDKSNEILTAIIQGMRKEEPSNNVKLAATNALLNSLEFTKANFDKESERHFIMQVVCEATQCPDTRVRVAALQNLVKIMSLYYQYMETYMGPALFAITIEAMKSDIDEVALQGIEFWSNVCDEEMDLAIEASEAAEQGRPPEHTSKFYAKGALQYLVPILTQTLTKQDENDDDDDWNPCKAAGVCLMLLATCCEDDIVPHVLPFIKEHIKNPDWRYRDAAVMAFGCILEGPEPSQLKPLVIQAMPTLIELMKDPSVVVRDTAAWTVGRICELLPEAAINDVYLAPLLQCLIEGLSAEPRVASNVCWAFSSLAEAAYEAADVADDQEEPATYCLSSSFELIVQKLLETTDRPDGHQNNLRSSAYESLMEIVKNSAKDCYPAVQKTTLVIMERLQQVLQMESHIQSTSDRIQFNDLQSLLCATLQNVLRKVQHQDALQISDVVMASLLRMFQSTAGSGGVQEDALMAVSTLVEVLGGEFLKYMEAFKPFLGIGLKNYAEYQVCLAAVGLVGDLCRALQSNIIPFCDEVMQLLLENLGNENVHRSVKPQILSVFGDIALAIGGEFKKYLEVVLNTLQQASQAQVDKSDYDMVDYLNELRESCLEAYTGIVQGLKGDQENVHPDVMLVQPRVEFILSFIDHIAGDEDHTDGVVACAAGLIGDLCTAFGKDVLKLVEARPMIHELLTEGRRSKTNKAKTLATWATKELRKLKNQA
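FRET biosensor (snurportin 1 IBB flanked by EYFP and cerulean), 50 nM, with compound 5 min, then 0.125 microM importin beta in PBS, 1 mM DTT, 0.02% Tween-20, 0.1% BSA. CFP/YFP ratio read after 45 min at room temperature; pre-read flags interference.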
GLA inh pH 4.5 = inhibitors of human alpha-galactosidase A at pH 4.5; P06280; purified enzyme, 4-MU-alpha-Gal fluorescence, pH 4.5; activity change, negative = inhibition, % at 105 µM; AID 1467; 230,000 tested, under 10 active; inconclusive = small, poorly fitted or top-dose-only inhibition, or a rising curve; inactive = flat fitted curve, though single readings scatter; no compound was filed as active;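 also: 0% = full activity with enzyme and -100% = basal without enzyme; dose as in the result columns while the protocol names 77 µM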
Rango release inh = inhibition of RanGTP-driven Rango-importin beta dissociation; actives 0.071% (n = 340,000); Biochemical FRET Rango-importin beta, RanGTP-induced dissociation; AID 540253; Potency, µM (titrated, usually from 46.1 µM), for the others: at the highest dose activity change, negative = inhibition; active means falling FRET ratio curve, often poorly fitted, with flat reads before Ran was added; inconclusive means other falling curves, or compound fluorescence or quenching; inactive means flat or rising ratio curve;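 also: potency is read from the fitted curve at half-maximal effect; % of control where 0% means no effect; nearly all actives have a fitted effect of over 45% in size; -100% = wells without RanGTP and RCC1; the record marks most hits as doubtful in a second field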
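Rango (0.1 uM)–importin beta (0.25 uM) complex; RanGTP-RCC1 trigger; 45 min RT; CFP/YFP FRET read.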
miR-21 FLuc = miR-21 reporter, rising signal; HeLa miR-21 FLuc reporter, luciferase, 48 h; Potency, µM (titrated, usually from 38.3 µM), without a hit: at the highest dose reporter change, positive = more light; 340,000 tested, under 10 active; AID 2288; active = well fitted rising curve with a large enough effect; inconclusive = small, poorly fitted or top-dose-only effect; inactive = no such curve, though single readings can be large or run the other way;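 also: % of control where 0% means no effect; miR-21 action dims this reporter so a rising signal means less miR-21 action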
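HeLa cells endogenously expressing miR-21, stably carrying CMV-driven firefly luciferase with a downstream miR-21 binding site, 2000 cells/well. Titrations up to approximately 40 uM, 48 hours; luciferase luminescence read.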
Starred values were filed as active, the others as inactive; u = inconclusive; x = not tested or not shown; & = joins results of further samples; [ ] = remark or other dose. Not all compounds are listed; rates above refer to the full screens.

The line under a structure holds: Rango complex inh, GLA inh pH 4.5, Rango release inh, miR-21 FLuc
O=C(Nc1ccc2ncccc2c1)c1cc(Cl)ccc1Cl
  0.8%, 4, 9%, -23%
O=C(Nc1cccc2ccccc12)c1ccc([N+](=O)[O-])cc1
  -2.2%, x, 7%, 0%
CCCS(=O)(=O)c1c(S(=O)(=O)CCC)c2c(C)cccn2c1C(=O)N/N=C/c1cc(O)cc(O)c1
  u, -4, u, 16%
NC(N)=Nc1nc(-c2ccccc2)c2ccccc2n1
  -0.2%, -17, 10%, 18%
CCCCNC(=O)Nc1ccccc1Br
  -3.0%, -5, 2%, -27%
C=CCn1c(SCC(=O)Nc2sccc2C(N)=O)nc2ccccc2c1=O
  -1.1%, 4, 7%, 18%
CC(C)(CNC(=O)c1cccc(S(=O)(=O)Nc2ccc(Br)cc2)c1)N1CCOCC1
  -2.7%, x, 0%, x
O=C(CN1CCC(O)(c2ccccc2F)CC1)NCCc1c[nH]c2ccccc12
  4.4%, 2, 4%, 7%
Cc1cc(C(=O)O)ccc1NCc1cccnc1
  -3.2%, x, 7%, -7%
CCC(C)(C(=O)NC1CCCC1)N(C(=O)CNC(=O)c1ccccc1)c1c(C)n(C)n(-c2ccccc2)c1=O (stereo not given)
  -5.2%, -2, 10%, 0%

The results go on.
The line under a structure holds: Rango complex inh, GLA inh pH 4.5, Rango release inh, miR-21 FLuc
O=C1NC(c2ccc(Cl)cc2)=COc2ccccc21
  0.3%, 2, -10%, -18%
CC(C)(C)OC(=O)NCCCCCNC(=O)c1[nH]cnc1C(=O)Nc1cccc(Cl)c1
  2.0%, x, 2%, x
Cc1ccc(N=CC2=C(O)CC(c3ccc(Cl)cc3)CC2=O)cc1 (stereo not given)
  -0.1%, 3, -15%, -2%
Nc1nnc(SCC(=O)Nc2ccc3c(c2)OCCO3)s1
  -1.0%, 4, 1%, -18%
O=[N+]([O-])c1ccc(Cl)c2c1C1C=CCC1C(c1ccccn1)N2 (stereo not given)
  -0.5%, 0, 9%, 0%
CCN1C(=O)[C@H]2[C@@H](c3ccc(-c4cccc(Cl)c4)cc3)N[C@@](Cc3ccccc3)(C(=O)OC)[C@H]2C1=O
  -0.1%, x, 10%, x
Cc1ccc(CNC(=O)CNC(=O)[C@@H]2Cc3ccccc3CN2)cc1
  4.9%, x, -5%, 2%
COC(=O)c1c(NC(=O)C2CCCCC2)sc2c1CC(C)(C)NC2(C)C
  -3.4%, x, -2%, 0%
Cn1c(SCC(=O)N/N=C/c2ccccn2)nnc1-c1ccccc1
  -0.6%, -15, -9%, 1%
CN(C)c1cccc(/C=C(\C#N)c2ccccc2)c1
  u, -15, u, -18%

Following part.
The line under a structure holds: Rango complex inh, GLA inh pH 4.5, Rango release inh, miR-21 FLuc
COc1ccc(OC)c(CNc2ccc(F)c(Cl)c2)c1
  0.6%, 6, 3%, -13%
CCCn1nnnc1SCC(=O)Nc1cccc(NC(=O)c2ccco2)c1
  0.0%, -4, 0%, -6%
Cc1cccc(N2C(=O)c3cccc4c(N)ccc(c34)C2=O)c1
  u, x, u, -13%
Cc1c(Nc2c3c(c(C#N)c4nc5ccccc5n24)CCC3)c(=O)n(-c2ccccc2)n1C
  x, -4, x, -2%
O=c1ccn([C@@H]2O[C@H](CO)[C@@H](O)[C@H]2O)c(=O)[nH]1
  1.0%, 3, 2%, -1%
O=C(N/N=C\c1ccc(Cl)cc1Cl)c1sccc1-n1cccc1
  1.6%, -6, 2%, -16%
Nc1ncnc2c1ncn2[C@H]1C[C@H](O)[C@@H](CO)O1
  5.0%, -2, -13%, -1%
Cc1nc(-n2ncc(C#N)c2N)c2c3c(sc2n1)CCC3
  0.8%, -4, 1%, -2%
O=C(Nc1ccc(Cl)c(S(=O)(=O)N2CCOCC2)c1)c1ccccc1-c1ccc(C(F)(F)F)cc1
  1.9%, -6, -13%, u
C(#CC1CCCCC1)c1ccc2c(c1)COc1c3ccccc3nn1-2
  -5.2%, 12, -9%, -18%

Next results
The line under a structure holds: Rango complex inh, GLA inh pH 4.5, Rango release inh, miR-21 FLuc
NS(=O)(=O)c1ccc(N/C=C\C(=O)c2ccc3ccccc3c2)cc1
  u, -5, -19%, -58%
CC(=O)Nc1cc(C)c(S(C)(=O)=O)c(C)c1
  0.1%, -5, 14%, -6%
Cc1cc(C(=O)CCC(=O)N(C)CC(=O)Nc2c(Cl)cccc2Cl)c(C)s1
  0.2%, x, 8%, x
O=C(CSc1nnc(-c2ccco2)c(-c2ccco2)n1)Nc1ccccc1
  u, -10, -11%, -10%
CCOC(=O)c1c(C)[nH]c(C(=O)O)c1C
  3.7%, -5, -8%, 0%
O=C(CC1CC2CCC1C2)NCc1cccs1 (stereo not given)
  1.2%, -2, -2%, -21%
COc1cccc(-c2ccc(NC(=O)C3CCCN(Cc4ccc(CO)o4)C3)cc2)c1 (stereo not given)
  -2.5%, x, -9%, -7%
CCOn1c(=O)c(-c2ccc(Br)cc2)[n+]([O-])c2ccccc21
  -0.9%, x, -1%, -2%
Cc1nnc(NC(=O)CSc2n[nH]c(-c3ccccc3C)n2)s1
  0.6%, x, 1%, 7%
COc1ccccc1Oc1coc2c(CN3CCOCC3)c(O)ccc2c1=O
  0.2%, -3, -4%, 5%

Carrying on:
The line under a structure holds: Rango complex inh, GLA inh pH 4.5, Rango release inh, miR-21 FLuc
Cc1cc(C)c(NC(=O)CSc2nnc(CNC(=O)c3ccco3)o2)c(C)c1
  -0.5%, x, -1%, 2%
Cc1ccc(NC(=O)/C(=C\c2ccc([N+](=O)[O-])cc2)NC(=O)c2ccccc2)cc1
  u, 7, -7%, 2%
CCn1ccnc1CN(C)Cc1c(C(=O)N2CCCCCCC2)nc2ccc(Cl)cn12
  u, x, -1%, -2%
CCCCN(CCCC)c1cn[nH]c(=O)c1Cl
  0.9%, 4, -5%, -12%
CCCCCC1CC(CC(C)C(=O)Nc2nncs2)C(=O)O1 (stereo not given)
  0.5%, -1, 4%, -7%
CCN(CC(=O)Nc1c(F)cccc1F)C(=O)c1ccccc1F
  -0.1%, x, 25%, -7%
COc1ccc(Cl)cc1NC(=O)CN(C)C(=O)c1cn(-c2ccccc2)nc1-c1cccnc1
  1.0%, x, -1%, x
CC12CCC(=O)CC1CCC1C2CCC2(C)C1CCC2(O)C(=O)CO (stereo not given)
  3.9%, x, 1%, x
COC(=O)[C@@H]1C[C@@H]2CC[C@@H](O)C[C@@H]2N1Cc1ccc(Cl)cc1
  u, 6&-2, -18%, 0%
CNC(=S)Nc1cccc(S(=O)(=O)NCc2ccco2)c1
  0.9%, x, 2%, x

Continued.
The line under a structure holds: Rango complex inh, GLA inh pH 4.5, Rango release inh, miR-21 FLuc
CSCCC(NC(=O)c1ccccc1Cl)C(=O)NCCc1ccccn1 (stereo not given)
  2.1%, x, 14%, x
O=C(NCCCCNC(=O)c1ccccc1F)c1ccccc1F
  7.2%, x, 7%, 0%
CCOC(=O)CNC(=O)N1CCc2ccc(NC(=O)c3ccccc3Cl)cc2C1
  4.3%, x, 0%, 5%
Cc1ccc(Cn2nnc3c(=O)[nH]c(C4CCN(S(=O)(=O)c5ccc(F)cc5)CC4)nc32)cc1
  -10%, -4, -6%, -13%
CC(C)C[C@H](NC(=O)c1[nH]cnc1C(=O)N[C@@H](Cc1ccccc1)C(=O)OCc1ccccc1)C(=O)OCc1ccccc1
  1.7%, x, 19%, 5%
O=C(CCC(=O)Nc1nnc(C2CCCCC2)s1)Nc1ccccc1
  -0.9%, x, -3%, -4%
CCC(C)NC(=O)c1csc2c1CCCCC2 (stereo not given)
  4.0%, 1, -4%, -22%
CC(=O)NC(C)C(c1cccs1)N1CCN(c2ccccc2)CC1 (stereo not given)
  0.8%, 3, 2%, -3%
CCOc1ccc(-c2c(C(=O)N/N=C/c3ccc(O)cc3)nnn2-c2nonc2N)cc1
  -0.8%, -4, 10%, 3%
O=C(c1c(Cl)nc2sccn12)N1CCN(c2cccc(Cl)c2)CC1
  -0.1%, 9, 5%, 19%

At a glance, 4 of the compounds above:
The line under a structure holds: Rango complex inh, GLA inh pH 4.5, Rango release inh, miR-21 FLuc
CSCCC(NC(=O)c1ccccc1Cl)C(=O)NCCc1ccccn1 (stereo not given)
  2.1%, x, 14%, x
O=C(NCCCCNC(=O)c1ccccc1F)c1ccccc1F
  7.2%, x, 7%, 0%
CCOC(=O)CNC(=O)N1CCc2ccc(NC(=O)c3ccccc3Cl)cc2C1
  4.3%, x, 0%, 5%
Cc1ccc(Cn2nnc3c(=O)[nH]c(C4CCN(S(=O)(=O)c5ccc(F)cc5)CC4)nc32)cc1
  -10%, -4, -6%, -13%

Next records.
The line under a structure holds: Rango complex inh, GLA inh pH 4.5, Rango release inh, miR-21 FLuc
CCOC(=O)c1cc(NC(=O)Nc2nc3ccccc3s2)c(C)nc1C
  u, 2, -3%, -15%
O=C(Nc1ccc(S(=O)(=O)N2CCN(c3ccccc3)CC2)cc1)c1cccs1
  -0.4%, 6, 1%, 13%
COc1ccccc1NC(=O)COc1ccc(C(=O)OCC(=O)N(C(C)C)C(C)C)cc1OC
  3.9%, 1, 4%, -4%
O=C1c2cccnc2C(O)N1Cc1ccco1 (stereo not given)
  0.4%, 2, 4%, -2%
C=CCN1C(=O)/C(=C2/Sc3ccc(OC)cc3N2C)SC1=Nc1cccc(O)c1
  u, 2, u, 3%
O=C(NCc1ccccc1)c1cc(S(=O)(=O)N2CCC3(CC2)OCCO3)ccc1F
  -4.3%, -4, 24%, 3%
O=C1CC2(CCN(C(=O)c3cccc(F)c3)CC2)Oc2ccccc21
  -1.6%, x, 4%, x
CCOC(=O)[C@H]1[C@H]2COc3ccc(Br)cc3[C@H]2N2C(=O)CN(Cc3ccc(Cl)cc3)C(=O)[C@@]12C
  -1.4%, x, 8%, x
Cc1ccc(S(=O)(=O)N(C)C)cc1NC(=O)CSc1nc2ccccc2[nH]1
  -3.9%, 8, -11%, 3%
COC(=O)c1cc(-c2ccccc2)c2c(=O)n(C)c(=O)n(C)c2n1
  x, 6, x, -2%

(further entries)
The line under a structure holds: Rango complex inh, GLA inh pH 4.5, Rango release inh, miR-21 FLuc
O=C1CC2C(CC(OC(=O)c3ccc(-c4ccccc4)cc3)C2CO)O1 (stereo not given)
  13%, -7, 1%, -25%
COc1ccc([N+](=O)[O-])cc1NC(=O)CC1SC(=Nc2cccc(C)c2C)N(/N=C(\C)c2ccc(C)cc2)C1=O (stereo not given)
  -6.8%, 4, 39%, -1%
O=S(=O)(c1ccccc1)N1CCN(Cc2cc3c(cc2Br)OCCO3)CC1
  0.4%, x, -3%, x
Cc1ccccc1C(=O)NCCSc1ccccc1
  -4.3%, 10, 3%, -56%
CCN(CC)CCN1C(=O)C(=O)/C(=C(/O)c2c(C)[nH]c(C(=O)OC)c2C)C1c1ccccc1OC (stereo not given)
  7.2%, 2, 6%, 16%
O=C(CN1CCN(Cc2ccccc2Cl)CC1)N/N=C/c1ccco1
  -1.3%, -1, -1%, 0%
CSc1nnc2c3c4c(sc3c(=O)n(-c3ccccc3)n12)CC(C)(C)OC4
  6.5%, 6, 1%, -12%
c1ccc(C2CCCN(Cc3nc(CC4CC4)no3)CC2)cc1 (stereo not given)
  0.3%, 0, 3%, -28%
CCN(CC)S(=O)(=O)c1ccc(N2CCOCC2)c(NC(=O)C(C)(C)C)c1
  2.4%, 6, 4%, -3%
Cc1nn(Cc2ccccc2)c2c1C(c1cccnc1)C(C#N)=C(N)O2 (stereo not given)
  -3.7%, 4, 0%, 11%

(more compounds)
The line under a structure holds: Rango complex inh, GLA inh pH 4.5, Rango release inh, miR-21 FLuc
CC(=O)c1ccc(S(=O)(=O)N2CCN(C(=O)CSc3ccc(F)cc3)CC2)cc1
  u, x, -12%, -1%
CCOC(=O)CSc1nnc(CNC(=O)c2ccc(S(=O)(=O)N3CCCC3)cc2)n1C
  0.4%, 3, 2%, -8%
COc1cc(C(=O)Nc2ccc3c(c2)OCCO3)c(-n2cnnn2)cc1OC
  -7.4%, 6, 41%, -4%
COc1cccc(-c2cc(-c3cccnc3)c(C#N)c(N)n2)c1
  -2.9%, 21, -5%, 3%
COc1cc(/C=N\NC(=O)OC(C)(C)C)ccc1OC(=O)c1ccco1
  1.3%, -15[21.1 µM], -1%, -22%
CC1(C)C2C(Cl)(Cl)C2(C)c2ccccc2N1C=O (stereo not given)
  -1.3%, -4, 12%, 1%

High-throughput results (PubChem)
